# Bioassay records (PubChem BioAssay)
# Vaccinia mCherry: vaccinia inhibition (mCherry reporter). Vaccinia virus mCherry reporter infection, fluorescence; about a quarter of the inactives have no number. Potency, µM (top dose mostly 36.5 µM), for inactives: at the highest dose activity change, negative = inhibition, usual class: inhibitors. hit rate 0.63% among 310,000. AID 720579; active = well fitted inhibition curve with a large enough effect; inconclusive = small, poorly fitted or top-dose-only effect; inactive = no such curve, though single readings can be large or run the other way; tested in A549 cells; further: nearly all actives have a fitted effect of over 35% in size; inactives centre near -10
# VACV Venus inh: inhibitors of vaccinia virus (Venus reporter). hit rate 0.46% among 330,000. Potency, µM (titrated, usually from 36.5 µM), without a hit: at the top dose activity change, negative = inhibition, most hits filed as inhibitors. Vaccinia virus Venus reporter expression, fluorescence. AID 720580; active means well fitted inhibition curve with a large enough effect; inconclusive means small, poorly fitted or top-dose-only effect; inactive means no such curve, though single readings can be large or run the other way; tested in A549 cells; further: nearly all actives have a fitted effect of over 30% in size; inactives centre near -10
# An asterisk follows results filed as active; i = inactive; ? = inconclusive; / = not tested or not shown; [ ] = dose if it differs, or a comment. On the % scale 0 is the no-effect control and ±100 the full control effect; potency means the concentration at half of the fitted maximal effect.
compound | VACV Venus inh | Vaccinia mCherry
O=S(=O)(NCc1ccc(F)cc1)c1ccc(-c2cnc(C3CC3)o2)cc1 | 0%[7.34 µM] | -26%
CCC(=O)NCCc1nc2ccccc2[nH]1 | -12% | i
Cn1c(CC2Sc3ccccc3NC2=O)nnc1SCC(=O)c1ccc(Cl)cc1 (centres undefined) | -13% | i
O=C(OCC(=O)N1CCCC1)c1cccs1 | 2% | /
COc1ccccc1NS(=O)(=O)c1cc(NC(=O)c2cccc(S(=O)(=O)N(C)C)c2)ccc1N1CCOCC1 | -22% | -3%
Cc1ccc(S(=O)(=O)N(C)Cc2nc(-c3ccccc3)oc2C)cc1 | -1% | -8%
CCOC(=O)C(=Cc1ccc(-n2ccnc2)cc1)C(=O)OCC | ? | ?
O=C(NCC(c1cccs1)N1CCOCC1)c1ccccc1NS(=O)(=O)c1ccc(Cl)cc1 (centres undefined) | -5% | -15%
Cc1occc1C(=O)NNC(=S)NCc1ccccc1 | -16% | i
C[C@@H]1CN([C@H](C)CO)C(=O)CCCn2nncc2CO[C@@H]1CN(C)C(=O)Nc1cccc2ccccc12 | -8% | 7%
O=C(CN1CCN(c2ccc(Cl)cc2)CC1)N1CCCC1 | -19% | -23%
Fc1ccc(CN2CCN3CCCC3C2C2CCCCC2)cc1F (centres undefined) | ? | /
CCOC(=O)c1cnc(SC)nc1Oc1cccc(NS(=O)(=O)c2ccc(Cl)cc2)c1 | -6% | -18%
O=C1CN(S(=O)(=O)c2cccc(Br)c2)CCN1 | -5% | -8%
CCN(CC)C(=O)c1sc2c(c1C)c(=O)n(-c1ccccc1)c(=O)n2CC(=O)Nc1ccc(C)cc1C | -3% | -16%
Cc1cc(NS(=O)(=O)c2ccc(NC(=S)Nc3ccc(Cl)cc3C)cc2)no1 | -13% | i
C/C(CCC(=O)O)=N/Nc1ccc([N+](=O)[O-])cc1[N+](=O)[O-] | -7% | -13%
COc1ccc(OC)c(-c2csc(-c3c(N)c(C(=O)c4ccccc4)n4ccccc34)n2)c1 | -2% | -2%
CCOc1ccc(S(=O)(=O)Nc2nc3ccccc3nc2Nc2ccc(OC)cc2)cc1 | -5% | 2%
COc1ccc(/C=N/Nc2cc(C)nc3ccc(OC)cc23)c(OC)c1 | ? | ?
CCOC(=O)C1(C)CCCN(C(=O)c2cc(C#N)cs2)C1 (centres undefined) | -1% | 10%
C=CCn1c(NC(=O)c2ccc(Br)o2)c(C(=O)OCC)sc1=S | 1% | -4%
COc1ccc(OC)c(Nc2nc(-c3sc(C)nc3C)cs2)c1 | ? | ?
CC[N+](CC)(CC)CCOc1cccc(OCC[N+](CC)(CC)CC)c1OCC[N+](CC)(CC)CC | -16% | -7%
Nc1ccn(Cc2cccc(Cl)c2)n1 | -7% | -11%

# New compounds follow:
compound | VACV Venus inh | Vaccinia mCherry
CCc1ccc2nc(NC(=O)C3CSC4(C)CCC(=O)N34)sc2c1 (centres undefined) | -6% | ?
COc1ccccc1-c1noc(CCCC(=O)NCc2ccco2)n1 | -1%[7.34 µM] | -3%[7.34 µM]
COc1ccc(S(=O)(=O)NCC(c2ccco2)S(=O)(=O)c2ccc(C)cc2)cc1C (centres undefined) | -14% | -16%
CCCCn1nnnc1C1(C)CCC(=O)N1C1CC1 (centres undefined) | -5% | -10%
Fc1cccc(F)c1-c1nc(-c2ccc(Cl)cc2)no1 | 32%[activator] | 8%
CCc1ccc(Nc2n[n+](-c3ccccc3)c(-c3ccc(OC)c(Br)c3)s2)cc1 | -30% | i
Cc1[nH]c2ccccc2c(=O)c1CNCc1ccccc1 | -15% | -10%
CCCn1c(CN2CCN(C(=O)OCC)CC2)nc2cc([N+](=O)[O-])ccc21 | -10% | -22%
Cc1cc(C)c(NC(=O)CSc2nnc(CN3CCOCC3)n2C)c(C)c1 | -3% | -15%
CCCOc1ccccc1C(=O)Nc1nc2c(s1)CCCC2 | -7% | -13%
COc1ccc(-n2c(N)c(C(=O)NCc3ccco3)c3nc4ccccc4nc32)cc1OC | -9% | ?
O=C(CCc1nnc(CCCCc2ccccc2)o1)NCCCc1cccnc1 | -13% | -24%
CC(C)(C)c1ccc(C(=O)N2[C@H](COCc3ccccc3)C=CS2(=O)=O)cc1 | -1% | 19%
O=C(OCc1nc2ccccc2s1)c1cnccn1 | -17% | -18%
CC1=C(CCN2CCN(C(C)C)C(CCO)C2)C(C)(C)CCC1 (centres undefined) | -14% | -11%
CCS(=O)CCSC(=N)N (centres undefined) | -22% | /
Cc1ccc(Sc2ccc(C=C3C(=O)N(C)C(=O)N(C)C3=O)o2)cc1 | -1% | -7%
Cc1ccccc1C(=O)Nc1ccc(N2CCCC2)cc1 | -5% | ?
CSc1ccc(S(=O)(=O)NCC(=O)OCC(=O)NC2(C#N)CCCCC2)cc1[N+](=O)[O-] | -6% | -5%
Cc1ccc(-c2nc3ccc(C)cn3c2CC2CCCCC2)cc1 | -5% | 3%
COc1ccccc1CNC1CCN(Cc2ccccc2)CC1 | -15% | -16%
COc1cccc(OC(=O)CSc2nnc(-c3ccc4c(c3)OCO4)o2)c1 | -8% | -18%
NC(=O)C1CCN(C(=O)c2cc3c(s2)CCCC3)CC1 | -9% | -5%
COCC(=O)N(C)C[C@H]1N[C@@](Cc2ccccc2)(C(=O)OC)[C@H]2C(=O)N(Cc3ccccc3)C(=O)[C@@H]12 | 3% | i
Cc1cc2nc(-c3ccccc3Br)n(/C=C(\c3ccccc3)n3c(=O)[nH]c4ccccc43)c2cc1C | 9% | 30%

# Three neighbouring compounds out of the list so far:
compound | VACV Venus inh | Vaccinia mCherry
CCc1ccc2nc(NC(=O)C3CSC4(C)CCC(=O)N34)sc2c1 (centres undefined) | -6% | ?
COc1ccccc1-c1noc(CCCC(=O)NCc2ccco2)n1 | -1%[7.34 µM] | -3%[7.34 µM]
COc1ccc(S(=O)(=O)NCC(c2ccco2)S(=O)(=O)c2ccc(C)cc2)cc1C (centres undefined) | -14% | -16%

# Later entries:
compound | VACV Venus inh | Vaccinia mCherry
Cc1cccc(OCC(=O)OCC(=O)c2c(N)n(C)c(=O)n(C)c2=O)c1 | -4% | /
Cc1nn(CC(C)C)c(Cl)c1C(=O)N(C)CC(=O)Nc1ccc(Cl)cc1 | -18% | -10%
CCc1ccc2c(c1)NC(=O)C2(C)Cc1ccc(C(F)(F)F)nc1 (centres undefined) | -14% | i
Cc1ccc(NC(=O)CCNS(=O)(=O)c2ccccc2)c(C(=O)c2ccccc2)c1 | -19% | -20%
CN1CCc2nc(NC(=O)c3cccc(OC(F)F)c3)sc2C1 | -16% | /
CCN(Cc1ccc(OC)c(F)c1)C(=O)CCl | ? | -18%
CC1CCC(C(C)C)C(NC(=O)c2ccncc2)C1 (centres undefined) | 4% | 3%
O=C(OCc1nnc(-c2ccc(Cl)cc2)o1)C12CC3CC(CC(O)(C3)C1)C2 | -10% | -8%
CN(C(=O)c1cccc(N2C(=O)C3CC=CCC3C2=O)c1)C1CCCCC1 (centres undefined) | -8% | -10%
Cc1c(C(=O)O)nn(-c2cccc(C(F)(F)F)c2)c(=O)c1C#N | -2% | -12%
Nc1ccc(CC(N)c2csc(Nc3nncc4ccccc34)n2)cc1 (centres undefined) | -4% | 1%
COc1ccc(CNCCS(=O)(=O)NN2CCOCC2)cc1 | -7% | i
N#C/C(=C\c1c(Oc2ccc(Cl)cc2)nc2ccccn2c1=O)C(=O)NC1CCS(=O)(=O)C1 (centres undefined) | -9% | -10%
COc1cccc(-c2nc(CS(=O)CC(=O)NCc3ccccc3)c(C)o2)c1 (centres undefined) | 10% | 7%
CCOc1cc(N2CCOCC2)c(OCC)cc1NC(=O)c1ccc(F)c(S(=O)(=O)N2CCOCC2)c1 | -9% | -12%
CCOC(=O)c1cnc(-n2nc(C)cc2C)nc1NCc1ccccc1 | ? | ?
O=C(Nc1ccc(Cl)cn1)c1cc2ccccc2o1 | -28% | i
Cn1c(NCc2ccc3occc3c2)nc2cc(-c3ccc(F)cc3)sc2c1=O | -19% | -4%
O=c1c2ccccc2nc(-c2ccccc2Cl)n1-c1ccc(O)cc1 | -20% | -24%
CC(CC(=O)Nc1ccc(S(=O)(=O)Nc2ncccn2)cc1)c1ccccc1 (centres undefined) | -7% | -12%
O=S(=O)(c1ccc2nc(Nc3ccc(F)cc3)ccc2c1)N1CCCC1 | -12% | -19%
O=C(O)C1CCCN1S(=O)(=O)c1cc(Cl)ccc1Cl (centres undefined) | 26% | 11%
COc1cc(/C=N/NC(=O)c2ccc(CSc3nncn3C)cc2)cc(OC)c1O | -11% | i
CC(C)OC(=O)/C(=C\C=C\c1ccccc1)NC(=O)c1ccccc1 | -21% | -6%
c1ccc(NC2=Nc3ccccc3CC2)cc1 | -11% | /

# More results.
compound | VACV Venus inh | Vaccinia mCherry
CN(C(=O)CCc1nc2ccccc2s1)c1ccccc1 | -9% | i
COc1cc(/C=C/CN2CCN(Cc3ccc(C)o3)C(CCO)C2)ccc1O (centres undefined) | -4% | i
COc1ccc(NC(=O)NNC(=O)COc2ccc3cc(Br)ccc3c2)c(OC)c1 | -3% | -14%
CCOc1ccccc1N(CC(=O)NC1CCCCC1)C(=O)CCC(=O)Nc1cc(C)ccn1 | -7% | 0%
O=C(NCc1ccco1)c1cccn2c(=O)c3c4c(sc3nc12)CCCC4 | -16% | -24%
COC(=O)c1c(NC(=O)c2ccccc2C(=O)O)sc2c1CCC2 | 3% | -10%
COc1ccc(-c2cc3nc(C)c(CCC(=O)N4CCN(c5ccc(F)cc5)CC4)c(C)n3n2)c(OC)c1 | ? | ?
CCC(=O)Nc1ccc2c(c1)OC[C@@H](C)NC[C@@H](C)[C@@H](OC)CN(C)C2=O | -6% | -2%
CC(CNC(=O)COC(=O)c1cccnc1Cl)c1ccccc1 (centres undefined) | 5% | i
CC(=O)NCCC(=O)Nc1cc(S(=O)(=O)N2CCOCC2)ccc1N1CCCC1 | -6% | -13%
COc1cccc(CNC(=O)c2cccc(S(=O)(=O)N3CCN(C)CC3)c2)c1 | -14% | -22%
Cc1ccc(S(=O)(=O)Nc2ccc(C(N)=O)cc2)cc1[N+](=O)[O-] | -12% | -10%
O=C(CN1CCCC1)N1CCCc2ccccc21 | 6% | -4%
N#CC1=C(N)Oc2cc3ccccc3cc2C1c1cccs1 (centres undefined) | ? | ?
O=C(O)CCSC(=S)N1CCOCC1 | -5% | -3%
CC(=NC(C)C)C1=C(O)CCC1=O | 0% | /
COc1ccc(/C=C/C(=O)Nc2ccccc2C(=O)O)cc1 | -5% | -5%
COc1ccc(NC(=O)C2(C)CCN2Cc2ccccc2OC(F)F)cc1OC (centres undefined) | 0% | 10%
CCOc1cc(CNCCCN2CCOCC2)cc(Cl)c1OCC(=O)NC(C)(C)C | -6% | -6%
Cc1ccnc(N2CCC(C(=O)Nc3ccc(Oc4ccccc4)cc3)CC2)n1 | -6% | -14%
Cc1ccc(CNC(=O)CCSCc2cnn(-c3ccccc3)c2-n2cccc2)cc1 | -3% | 13%
Cc1ccc(N(CC(=O)N/N=C/c2ccc(OC3CSC3)cc2)S(=O)(=O)c2ccccc2)cc1 | -25% | -11%
CC(=O)Oc1cc2oc(=O)c3c(c2cc1Cl)CCC3 | -11% | i
Cc1noc(C)c1S(=O)(=O)NCCc1csc2nc(-c3ccc(F)cc3)nn12 | -14% | -7%
O=C(O)c1cc(Cl)c(Cl)cc1C(=O)N1CCCC1 | 0% | -9%

# Following part
compound | VACV Venus inh | Vaccinia mCherry
CCCCNc1ccc(S(=O)(=O)c2cccc([N+](=O)[O-])c2)cc1[N+](=O)[O-] | 0% | i
CCOC(=O)c1ccccc1NC(=O)COC(=O)C(CCSC)NC(=O)COc1ccccc1 (centres undefined) | 7% | -14%
O=C(Oc1ccc(-c2cnc3ccccc3n2)cc1)c1ccc(Br)o1 | 1% | i
CCCn1c(=O)c2sccc2n2c(CCCC(=O)Nc3ccccc3OCC)nnc12 | 8% | -3%
CCOC(=O)C1CCCN(c2c(C(=O)c3ccccc3)cnc3ccc(OC)cc23)C1 (centres undefined) | -1% | -14%
COc1ccc(/C=C/C(=O)C2CC2)cc1COc1c(C)cccc1C | 0% | 2%
O=C(CC1N=C2c3ccccc3N=C(SCC(=O)Nc3ccccc3F)N2C1=O)NCc1cccs1 (centres undefined) | -5% | -1%
O=C1CN(C(=O)CN2CCN(S(=O)(=O)c3ccccc3)CC2)c2ccccc2N1 | -5% | i
Cc1ccc(S(=O)(=O)c2cn(CC(=O)Nc3ccc4c(c3)OCO4)c3ccc(F)cc3c2=O)cc1 | -12% | -9%
FC(F)(F)c1cccc(N2CCN(Cc3nnc(-c4ccccc4)o3)CC2)c1 | -2% | -8%
Cc1cc(F)ccc1NC(=O)c1csc2c1CCC(C)C2 (centres undefined) | -5% | -14%
COc1ccc(N2CCN(C(=O)c3nn(C)c4c3CSc3ccccc3-4)CC2)cc1 | 1% | -3%
COc1ccc(OCc2cc(C(=O)N3C[C@H]4CC[C@H]3C4)no2)c(Cl)c1 | -6% | -7%
Cc1ccc(C(C)NC(=O)c2cccs2)cc1C (centres undefined) | 0% | 11%
Cc1ccc(S(=O)(=O)N2CC(O)C[C@H]2C(=O)OCC(=O)c2ccccc2)cc1 (some centres undefined) | -5% | -9%
Cc1cccc(NS(=O)(=O)c2cccc(C(=O)NCC3(N4CCCCC4)CCCCC3)c2)c1 | -25% | -9%
Cc1cc(Cl)ccc1NC(=O)CS(=O)(=O)c1cccc2nsnc12 | -17% | -26%
COC(=O)c1ccccc1NC(=O)c1ccc2nc(Cc3ccccc3)oc2c1 | -4% | -10%
